Screening data deposited in PubChem by Broad Institute.
UUG fidelity = modulators of yeast start codon fidelity, primary screen, whole organism, S. cerevisiae, single point, plate reader | S. cerevisiae UUG-firefly luciferase reporter, luminescence/redox ratio | AID 602363, 2012 | activity score, % at 18.7 µM | 350,000 compounds, 0.13% hits;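 active = replicate mean at a twofold rise or more, about +100% in these data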;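 note: firefly luciferase made from a UUG start codon reports start codon fidelity; reporter light over untreated wells divided by growth signal over untreated wells; some hits fall short of that in this replicate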
Active calls of the source: *. The list is partial (hit frequency here may not be typical).

No.	molecule	UUG fidelity
1	C[C@H]1CN([C@@H](C)CO)C(=O)Cc2cc(NS(=O)(=O)c3ccc(F)cc3)ccc2O[C@@H]1CN(C)C(=O)NC1CCCCC1	17.9
2	Cc1ccc(S(=O)(=O)N(C)C[C@H]2Oc3ccc(NC(=O)Cc4ccccc4)cc3C(=O)N([C@H](C)CO)C[C@H]2C)cc1	30.0
3	C[C@@H]1CN([C@H](C)CO)C(=O)Cc2cc(NC(=O)CCCN(C)C)ccc2O[C@H]1CN(C)Cc1ccc(-c2ccccc2)cc1	-2.1
4	CO[C@H]1CN(C)C(=O)c2ccc(NC(=O)C3CCOCC3)cc2OC[C@H](C)N(C(C)=O)C[C@@H]1C	5.0
5	Cc1ccc(S(=O)(=O)N(C)C[C@H]2Oc3ccc(NC(=O)Cn4cnnn4)cc3C(=O)N([C@H](C)CO)C[C@H]2C)cc1	-10.8
6	CCS(=O)(=O)Nc1ccc2c(c1)C(=O)N(C)C[C@@H](OC)[C@H](C)CN(C(=O)CN(C)C)[C@@H](C)CO2	-14.8
7	CO[C@@H]1CN(C)C(=O)c2ccc(NC(=O)C3CC3)cc2OC[C@H](C)N(Cc2nccs2)C[C@H]1C	-8.4
8	C[C@@H]1CN([C@@H](C)CO)C(=O)c2cc(NC(=O)Nc3ccc(C(F)(F)F)cc3)ccc2O[C@H]1CN(C)Cc1ccc(Cl)c(Cl)c1	-15.0
9	CN(C)CC(=O)N1CCCCN2[C@H](CO)[C@H](c3ccc(-c4cccnc4)cc3)[C@H]2C1	-16.9
10	CCC(=O)N1C[C@H]2[C@@H](c3ccccc31)[C@@H](CO)N2Cc1ccccc1OC	4.7
11	CC(C)NC(=O)N1C[C@H]2[C@@H](c3ccccc31)[C@@H](CO)N2Cc1ccccc1	-9.0
12	CO[C@@H]1CN(C)C(=O)c2cc(NC(=O)C3CC3)ccc2OC[C@H](C)NC[C@@H]1C	-4.6
13	C[C@H]1CN([C@@H](C)CO)C(=O)c2cccc(NC(=O)Nc3ccc(C(F)(F)F)cc3)c2O[C@@H]1CN(C)S(=O)(=O)c1cn(C)cn1	9.1
14	CC(C)NC(=O)N1C[C@H]2[C@@H](c3ccccc31)[C@H](CO)N2C(=O)C1CCCC1	-3.2
15	COc1ccc(NC(=O)N(C)C[C@@H]2Oc3ccc(NS(=O)(=O)c4ccc(F)cc4)cc3C(=O)N([C@H](C)CO)C[C@H]2C)cc1	8.2
16	COc1ccc(S(=O)(=O)N(C)C[C@H]2Oc3ccc(NC(=O)Nc4ccc(F)cc4)cc3C(=O)N([C@H](C)CO)C[C@@H]2C)cc1	-5.0
17	CN(C)C(=O)c1cccc(-c2ccc3c(c2)[C@@H]2[C@@H](CCN2C(=O)C2CCOCC2)[C@H](CO)N3)c1	4.6
18	CC(C)NC(=O)Nc1ccc2c(c1)CC(=O)N([C@@H](C)CO)C[C@@H](C)[C@@H](CN(C)Cc1ccc(Oc3ccccc3)cc1)O2	23.4
19	COc1ccc(-c2ccc3n(c2=O)C[C@@H]2[C@@H](CO)[C@H](C(=O)N(C)C)N(CC4CC4)[C@H]32)cc1	17.4
20	C[C@H]1CN([C@@H](C)CO)C(=O)c2ccccc2-c2ccccc2CO[C@H]1CN(C)Cc1ccccc1	5.8
21	CC(C)NC(=O)N(C)C[C@@H]1Oc2ccc(NC(=O)CCC(F)(F)F)cc2C(=O)N([C@H](C)CO)C[C@@H]1C	9.9
22	C[C@@H]1CN([C@@H](C)CO)C(=O)c2cccc(NC(=O)c3ccc(-c4nccs4)cc3)c2O[C@H]1CN(C)Cc1ccncc1	17.2
23	OC[C@@H]1[C@@H](c2ccc(Br)cc2)[C@H]2CN(Cc3cncnc3)CCCCN12	-13.8
24	CC(C)(O)C#Cc1ccc([C@H]2[C@H]3CN(C(=O)c4cccnc4)CCCCN3[C@H]2CO)cc1	6.7
25	O=C(c1cccnc1)N1C[C@H]2[C@@H](c3ccccc31)[C@@H](CO)N2C(=O)Nc1ccc(F)cc1	20.4
26	CCCN1C[C@@H](C)[C@@H](OC)CN(C)C(=O)c2ccc(NC(=O)c3cnccn3)cc2OC[C@@H]1C	-1.7
27	CC(C)NC(=O)N(C)C[C@@H]1Oc2ccc(NC(=O)c3ccncc3)cc2CC(=O)N([C@H](C)CO)C[C@@H]1C	2.4
28	CO[C@H]1CN(C)C(=O)c2ccc(NS(C)(=O)=O)cc2OC[C@@H](C)N(C(=O)CC2CC2)C[C@H]1C	-8.7
29	COC(=O)[C@@H]1[C@@H](CO)[C@@H]2Cn3c(cccc3=O)[C@@H]2N1C(=O)C1CCC1	-7.0
30	Cc1ccc(S(=O)(=O)N(C)C[C@H]2Oc3ccc(N(C)C)cc3CC(=O)N([C@H](C)CO)C[C@@H]2C)cc1	0.5
31	C[C@H]1CN([C@@H](C)CO)C(=O)c2cc(NS(=O)(=O)c3cn(C)cn3)ccc2O[C@@H]1CN(C)Cc1ccncc1	-13.5
32	COc1cccc(-c2ccc3c(c2)[C@@H]2[C@@H](CCN2S(=O)(=O)c2ccccc2OC)[C@@H](CO)N3)c1	-5.2
33	COc1ccc(-c2ccc([C@@H]3[C@H]4CN(C(=O)NC(C)C)CCCCN4[C@H]3CO)cc2)cc1	-12.9
34	C[C@H](CO)N1C[C@H](C)[C@@H](CN(C)S(=O)(=O)c2ccc(F)cc2)Oc2ccc(NC(=O)Cc3ccccc3)cc2CC1=O	8.5
35	Cn1cnc(S(=O)(=O)N2CC[C@H]3[C@H](CO)Nc4ccc(-c5ccccc5)cc4[C@H]32)c1	4.8
36	CCCC#Cc1ccc([C@H]2[C@@H](CO)N3CCCCN(Cc4cccnc4)C[C@H]23)cc1	-2.4
37	C[C@@H]1CN([C@H](C)CO)C(=O)c2cc(NS(=O)(=O)c3cn(C)cn3)ccc2O[C@@H]1CN(C)Cc1ccc2c(c1)OCO2	-6.1
38	O=C([C@@H]1[C@@H](CO)[C@@H]2Cn3c(ccc(C4=CCCCC4)c3=O)[C@@H]2N1Cc1nccs1)N1CCOCC1	-19.3
39	CC(=O)N1CC[C@@H]2[C@H]1c1cc(-c3ccc(F)cc3)ccc1N[C@@H]2CO	-16.0
40	CN1[C@H](C(=O)NCCc2ccccc2)[C@@H](CO)[C@@H]2Cn3c(ccc(-c4ccncc4)c3=O)[C@@H]21	3.0
41	C[C@H](CO)N1C[C@H](C)[C@H](CN(C)C(=O)Nc2ccccc2)Oc2ccc(NC(=O)Nc3cccc4ccccc34)cc2C1=O	15.7
42	CCC(=O)N1[C@H](CO)[C@@H]2c3ccccc3N(S(=O)(=O)c3ccccc3C)C[C@@H]21	1.0
43	CC(C)NC(=O)Nc1ccc2c(c1)CC(=O)N([C@H](C)CO)C[C@@H](C)[C@@H](CN(C)C(=O)Nc1ccc(C(F)(F)F)cc1)O2	-4.4
44	O=C(CN1CCOCC1)NC[C@@H]1N[C@@H](CO)[C@@H]1c1ccc(-c2ccccc2)cc1	-1.7
45	CCCNC(=O)N1C[C@H](O)COC[C@H]2O[C@@H](CC(=O)N3CCCCC3)CC[C@@H]21	4.3
46	OC[C@@H]1[C@@H](c2ccc(C#CC3CC3)cc2)[C@@H]2CN(CCC(F)(F)F)CCCCN12	28.1
47	CO[C@@H]1CN(C)C(=O)c2cc(NC(=O)c3ccccc3)ccc2OC[C@H](C)N(C(C)=O)C[C@@H]1C	-5.2
48	COc1ccccc1CNC(=O)C[C@H]1CC[C@H]2[C@@H](COc3ccc(NC(=O)Nc4ccc(F)c(F)c4)cc3C(=O)N2C)O1	-12.5
49	CN(C)CC(=O)N1CC[C@@H]2[C@H]1c1cc(-c3ccccc3)ccc1N(C)[C@H]2CO	27.2
50	Cc1noc(C)c1NC(=O)Nc1ccc2c(c1)C(=O)N([C@@H](C)CO)C[C@H](C)[C@@H](CN(C)S(C)(=O)=O)O2	-8.6

Remaining list, next part
No.	molecule	UUG fidelity
51	Cc1ccccc1S(=O)(=O)N1CCCCN2[C@H](CO)[C@H](c3ccc(-c4ccccc4)cc3)[C@H]2C1	8.9
52	O=C(C[C@H]1CC[C@H]2[C@@H](COC[C@H](O)CN2S(=O)(=O)c2ccc(Cl)cc2)O1)NCCN1CCCC1	5.1
53	C[C@@H]1CN([C@H](C)CO)C(=O)c2cc(NS(=O)(=O)c3cn(C)cn3)ccc2O[C@@H]1CN(C)Cc1ccc(-c2ccccc2)cc1	-0.7
54	Cc1ccc(S(=O)(=O)N2CC[C@H]3[C@H](CO)Nc4ccc(-c5ccccc5F)cc4[C@H]32)cc1	7.7
55	C[C@H](CO)N1C[C@H](C)[C@H](CN(C)C(=O)Oc2ccccc2)OCc2ccccc2-c2ccccc2C1=O	1.7
56	CNC[C@@H]1Oc2ccc(NS(=O)(=O)c3cccs3)cc2C(=O)N([C@H](C)CO)C[C@@H]1C	-2.3
57	C[C@@H]1CN([C@H](C)CO)C(=O)c2cc(NC(=O)Cn3cnnn3)ccc2O[C@H]1CN(C)C(=O)Nc1cccc2ccccc12	-0.1
58	C[C@H](O)C#Cc1ccc([C@H]2[C@H]3CN(C(=O)c4ccc5c(c4)OCO5)CCCCN3[C@H]2CO)cc1	4.0
59	C[C@@H]1CN([C@H](C)CO)C(=O)c2cc(NS(=O)(=O)c3cccs3)ccc2O[C@H]1CN(C)S(=O)(=O)c1ccc(Cl)cc1	-2.9
60	COc1cccc(S(=O)(=O)N2C[C@@H](O)COC[C@H]3O[C@@H](CC(=O)N4CCOCC4)CC[C@@H]32)c1	15.1
61	O=C(C[C@H]1CC[C@H]2[C@@H](COC[C@H](O)CN2C(=O)c2ccccc2F)O1)N1CCOCC1	-5.4
62	COCC(=O)N1CC[C@@H]2[C@H]1c1cc(C#Cc3cccc(F)c3)ccc1N[C@@H]2CO	3.7
63	Cc1ccc(S(=O)(=O)N(C)C[C@@H]2Oc3c(NC(=O)Nc4cccc5ccccc45)cccc3C(=O)N([C@@H](C)CO)C[C@H]2C)cc1	16.0
64	OC[C@H]1[C@H](c2ccc(C#CC3(O)CCCC3)cc2)[C@@H]2CN(Cc3cncnc3)CCCCN12	-0.8
65	CCC(=O)Nc1ccc2c(c1)OC[C@H](C)N(C(=O)c1cccnc1)C[C@@H](C)[C@@H](OC)CN(C)C2=O	33.0
66	C[C@H]1CN([C@@H](C)CO)C(=O)c2cc(C#CCc3ccccc3)cnc2O[C@@H]1CN(C)Cc1cccc(F)c1	-3.6
67	O=C(NCC1CC1)[C@@H]1[C@@H](CO)[C@@H]2Cn3c(ccc(-c4ccccc4)c3=O)[C@H]1N2Cc1nccs1	8.8
68	COc1ccc(CN(C)C[C@H]2Oc3c(NS(=O)(=O)c4ccc(C)cc4)cccc3C(=O)N([C@H](C)CO)C[C@H]2C)cc1	28.1
69	CO[C@@H]1CN(C)C(=O)c2ccc(NC(=O)C3CC3)cc2OC[C@@H](C)N(S(=O)(=O)c2ccc(Cl)cc2)C[C@H]1C	4.9
70	COCC(=O)NC[C@@H]1[C@H](c2ccc(C3=CCCC3)cc2)[C@H](CO)N1C(C)=O	-1.7
71	C[C@H]1CN([C@@H](C)CO)C(=O)c2cccc(NS(=O)(=O)c3ccccc3)c2O[C@H]1CN(C)C	23.9
72	O=C(CC(F)(F)F)N1C[C@H]2[C@@H](c3ccccc31)[C@H](CO)N2C(=O)C1CCOCC1	19.6
73	C[C@H]1CN([C@@H](C)CO)C(=O)c2cc(NC(=O)Nc3ccc(F)cc3)ccc2O[C@@H]1CN(C)C	9.6
74	COC(=O)C[C@@H]1CC[C@H]2[C@@H](COC[C@@H](O)CN2S(=O)(=O)c2ccccc2C)O1	-1.8
75	CC(C)NC(=O)N(C)C[C@H]1Oc2ccc(NC(=O)c3ccncc3)cc2CC(=O)N([C@@H](C)CO)C[C@H]1C	3.7
76	O=C(Nc1ccccc1)N1CCCCN2[C@H](CO)[C@@H](c3ccc(Br)cc3)[C@H]2C1	-6.4
77	O=C(Nc1ccc(Cl)cc1)N1C[C@H]2[C@@H](c3ccccc31)[C@H](CO)N2CC1CCCC1	-4.6
78	CC(C)NC(=O)Nc1ccc2c(c1)CC(=O)N([C@@H](C)CO)C[C@H](C)[C@@H](CN(C)C(=O)Nc1ccc(C(F)(F)F)cc1)O2	1.8
79	Cc1ccccc1-c1ccc([C@H]2[C@H](CO)N3CCCCN(S(=O)(=O)c4ccc(F)cc4)C[C@@H]23)cc1	8.2
80	CN1c2ccc(-c3ccccc3F)cc2[C@@H]2[C@@H](CCN2C(=O)CN2CCOCC2)[C@@H]1CO	4.1
81	CCN1[C@@H]2Cn3c(ccc(C4=CCCC4)c3=O)[C@H]1[C@@H](C(=O)NCc1ccccn1)[C@@H]2CO	-33.9
82	C[C@@H](O)C#Cc1ccc([C@@H]2[C@@H](CO)N3CCCCN(C(=O)c4ccc(F)cc4)C[C@@H]23)cc1	-1.5
83	Cc1ccc(S(=O)(=O)N2CC[C@@H]3[C@@H](CO)Nc4ccc(-c5ccc(C#N)cc5)cc4[C@@H]32)cc1	-1.9
84	O=C(CC(F)(F)F)N1C[C@H]2[C@@H](c3ccccc31)[C@H](CO)N2CC1CCOCC1	35.5
85	COc1ccccc1C#Cc1ccc([C@@H]2[C@H]3CN(C(=O)C4CCC4)CCCCN3[C@H]2CO)cc1	4.0
